Source: PubChem
RE007 growth inh: qHTS Assay for Inhibitors of the HIV-1 protein Vpr. hit rate 0.21% among 360,000. Potency, µM (titrated, usually from 92.2 µM), without a hit: top-dose activity change, negative = less growth. S. pombe RE007 Vpr strain, BacTiter-Glo ATP luminescence, 24 h; control for the full effect not named in the record. AID 651644, 2012; active = well fitted falling curve with a large enough effect; inconclusive = small, poorly fitted or top-dose-only effect; inactive = no such curve, though single readings can be large or run the other way;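 note: % is set by controls: 0 for no effect and ±100 for the full control effect; nearly all actives have a fitted effect of over 50% in size; the assay follows cell death caused by Vpr and the record does not say whether a fall means rescue or toxicity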
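Fission yeast RE007 carrying one integrated HIV-1 vpr copy, seeded at OD 0.01 in PMG+AL medium with 23 nL pinned compound. Grown 24 h at 30 degrees; viability read by BacTiter-Glo luminescence after 5 min.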
Cruzain inh noDet: qHTS Assay for Promiscuous and Specific Inhibitors of Cruzain (without detergent). Cruzipain (Trypanosoma cruzi), P25779. purified cruzain, Z-FR-AMC fluorescence, no detergent. Potency, µM, for the others: max response, negative = inhibition, usual class: inhibitors. hit rate 2.3% among 200,000. AID 1476, 2009;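 note: plate controls were enzyme without inhibitor for no effect and buffer without enzyme for full effect; nearly all actives have a fitted effect of over 40% in size; top concentration of the series not given in the record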
Target sequence (P25779 123-467 limits assumed): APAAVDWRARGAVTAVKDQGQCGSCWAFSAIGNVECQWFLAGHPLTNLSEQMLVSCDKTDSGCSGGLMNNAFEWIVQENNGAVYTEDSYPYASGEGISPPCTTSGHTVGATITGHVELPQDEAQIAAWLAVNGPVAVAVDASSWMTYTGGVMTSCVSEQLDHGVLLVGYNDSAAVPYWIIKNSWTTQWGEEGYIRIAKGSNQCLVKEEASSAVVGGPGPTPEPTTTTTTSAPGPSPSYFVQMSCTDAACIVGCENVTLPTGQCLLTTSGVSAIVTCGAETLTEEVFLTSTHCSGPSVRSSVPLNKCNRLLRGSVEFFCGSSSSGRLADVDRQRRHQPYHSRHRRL
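Detergent-free condition (0.00005% Triton X-100) in acetate buffer pH 5.5 with DTT. 1.5 nM enzyme and compound were pre-mixed 15 min, then 2 uM Z-FR-AMC substrate added; reaction progress from fluorescence change between first and third reads (60 s).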
Cruzain inh Det: qHTS Assay for Promiscuous and Specific Inhibitors of Cruzain (with detergent); Cruzipain (Trypanosoma cruzi), P25779; purified cruzain, Z-FR-AMC fluorescence, 0.01% Triton; hit rate 0.43% among 200,000; AID 1478, 2009; Potency, µM, without a hit: max response, negative = inhibition, hits mostly inhibitors;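 note: plate controls were neutral wells for no effect and buffer without enzyme for full effect; nearly all actives have a fitted effect of over 40% in size; top concentration of the series not given in the record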
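Steps: dispense cruzain (1.5 nM final) in acetate buffer pH 5.5 with DTT and 0.01% Triton X-100; pin-transfer compounds; incubate 15 min RT; add Z-FR-AMC (2 uM final); read fluorescence every 30 s, using the 60 s intensity change.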
Marburg entry inh: qHTS for inhibitors of binding or entry into cells for Marburg Virus | Marburg virus pseudotyped entry inhibition, cell reporter; control for the full effect not named in the record; about a third of the inactives were read at about 46 µM | Potency, µM (highest dose often 37.8 µM), for inactives: top-dose activity change, negative = inhibition, usual class: inhibitors | hit rate 1.8% among 300,000; active = well fitted inhibition curve with a large enough effect; inconclusive = small, poorly fitted or top-dose-only effect, or effect the other way; inactive = flat fitted curve, though single readings scatter; tested in HEK293 cells; about a fifth of its hits are not listed in these tables; note: % is set by controls: 0 for no effect and ±100 for the full control effect; luciferase read-out
Lassa entry inh: qHTS for Inhibitors of binding or entry into cells for Lassa Virus | AID 540256, 2011 | hit rate 1.2% among 300,000 | Potency, µM (doses to about 37.9 µM), without a hit: at the highest dose activity change, negative = inhibition, hits mostly inhibitors | Lassa virus pseudotype entry inhibition, cell reporter; control for the full effect not named in the record; active means well fitted inhibition curve with a large enough effect; inconclusive means small, poorly fitted or top-dose-only effect, or effect the other way; inactive means flat fitted curve, though single readings scatter; tested in HEK293 cells; note: % is set by controls: 0 for no effect and ±100 for the full control effect; nearly all actives have a fitted effect of over 50% in size; luciferase read-out
NS1 inh: qHTS Assay for Inhibitors of Influenza NS1 Protein Function; hit rate 0.4% among 270,000; Potency, µM (highest dose often 46.1 µM), for the others: top-dose activity, positive = more growth; S. cerevisiae slowed by influenza A NS1, growth recovery by OD600; AID 2326, 2010; active means well fitted rising curve with a large enough effect; inconclusive means small, poorly fitted or top-dose-only effect; inactive means no such curve, though single readings can be large or run the other way; note: nearly all actives have a fitted effect of over 50% in size
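Growth recovery, yeast-based: influenza A NS1 expressed in S. cerevisiae causes slow growth, and suppressors are detected by OD600. The parent strain without NS1 is used as positive control.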
2A StopGo: High Throughput Screening for Foot and Mouth Disease Virus Antivirals; human cells with a luciferase reporter of 2A StopGo recoding; control for the full effect not named in the record; Potency, µM (doses to about 57.9 µM), for inactives: at the highest dose signal change, negative = less light; hit rate 1.2% among 410,000; active = well fitted falling curve with a large enough effect; inconclusive = small, poorly fitted or top-dose-only effect; inactive = no such curve, though single readings can be large or run the other way; tested in HEK293T cells; note: % is set by controls: 0 for no effect and ±100 for the full control effect; nearly all actives have a fitted effect of over 45% in size; luciferase light after 4 h
SARS PLpro yeast: qHTS of Yeast-based Assay for SARS-CoV PLP; S. cerevisiae expressing SARS-CoV PLpro, growth rescue; control for the full effect not named in the record; Potency, µM (top dose mostly 32.9 µM), without a hit: top-dose activity, positive = growth rescue; hit rate 0.19% among 330,000; AID 485353, 2010; active means well fitted rising curve with a large enough effect; inconclusive means small, poorly fitted or top-dose-only effect; inactive means no such curve, though single readings can be large or run the other way; note: 0% is about no effect; nearly all actives have a fitted effect of over 55% in size; growth read by luminescence after 48 h
Active calls of the source: *; ? = inconclusive; · = no result given; & = joins results of further samples; [ ] = another dose, or the depositor's remark. Unless noted, calls come from the whole dose curve; as a rule, active = well fitted curve in the direction sought with a large enough effect; inconclusive = small, poorly fitted or top-dose-only effect, or another doubt; inactive = no such curve, though single readings can be large; an effect the other way counts as inactive or inconclusive. Potency is the fitted concentration of half-maximal effect.

no.	mol	2A StopGo	Cruzain inh noDet	NS1 inh	SARS PLpro yeast	Marburg entry inh	Cruzain inh Det	Lassa entry inh	RE007 growth inh
1	Cc1ccc(NC(=O)Nc2ccc3nc(N4CCN(C)CC4)cc(C)c3c2)cc1C	-2%	13%	·	·	·	-2.5%	?	·
2	COc1cc(C(=O)Nc2ccc(Nc3ccccc3)cc2)cc(OC)c1OC	-17%	·	8%	-4%	·	·	·	7%
3	CCN(CC(=O)NCc1cccs1)C(=O)c1ccc(OC)c(S(=O)(=O)N2CCOCC2)c1	-3%	·	·	0%	1%	·	8%	-13%
4	COc1ccc(CN2COc3ccc4c(C)cc(=O)oc4c3C2)cc1	-6%	?	·	·	·	-7.5%	19%[46.1 µM]	·
5	CCCC1C(=O)Nc2ccccc2N1C(=O)c1cccc(C)c1 (stereo not drawn)	-25%	·	-6%	0%	?	·	-18%[46.1 µM]	-1%
6	Cc1cccc(NC(=O)C23CCC(C)(C2Br)C3(C)C)c1 (stereo not drawn)	6%	-13%	-27%	-13%	7%	-1.2%	-32%	1%
7	NCCSC1CC(=O)N(c2ccc(Cl)c(Cl)c2)C1=O (stereo not drawn)	26%	·	19%	-5%	?	·	-4%[46.1 µM]	-56%
8	C/C=C(/C)C(=O)Nc1cccc(C2=NOC3(C2)C[C@@H](C(N)=O)N(C(=O)CC)C3)c1 (stereo partly drawn)	4%	·	2%	-2%	·	·	·	5%
9	Cc1nnc(NC(=O)CSc2nnc(CNC(=O)c3ccccc3)o2)s1	-17%	·	4%	·	-10%	·	0%	6%
10	COc1ccc(C2=NS(=O)(=O)N(C)C(C(=O)N3CCC(C)CC3)=C2)cc1	0%	·	16%	-6%	·	·	·	-5%
11	COc1ccc2nc(C)cc(SCC(=O)N/N=C/c3ccccc3)c2c1	?	11%	16%	22%	-10%	-5.6%	?	3%
12	O=c1cc(N2CCCCC2)c(-c2ccccc2)nn1Cc1ccc(F)cc1	-23%	·	-38%	3%	?	·	-25%[46.1 µM]	8%
13	COc1cccc2cc(C(=O)CS(=O)(=O)c3ccc(C)cc3)c(=O)oc12	9%	·	6%	-1%	·	·	·	16%
14	S=C(NCc1ccncc1)Nc1ccc(Br)cc1Cl	7%	·	-5%	1%	·	·	·	-4%
15	O=C(Nc1cccc(F)c1)NC1CC2CCCC(C1)N2C1CC1 (stereo not drawn)	-30%	-10%	3%	-2%	-1%	-7.4%	12%	21%
16	Nc1c(C(=O)N2CCCCC2)sc(=S)n1-c1ccccc1	9%	-29%	-56%	24%	0%	0.0%	-1%	-13%
17	COc1ccc(OC)c(NC(=O)C2CCCN(S(=O)(=O)c3cccc4nsnc34)C2)c1 (stereo not drawn)	-20%	0%	17%	3%	0%&-13%	-7.3%	-10%	4%
18	COc1ccccc1N1CCN(C[C@@H](O)COc2cccc3ccccc23)CC1	-29%	8%&-13%	·	·	?	1.8%&0.8%	·	·
19	Cc1cc2n(c1)CCn1c(C)ccc1-2	·	?	13µM*	2%	-3%	-4.7%	·	·
20	CCN(CC)CCNC(=O)c1c(C)n(-c2ccccc2)c2cc(Br)c(OC)cc12	-20%	2%	?	7%	?	2.0%	7.3µM*	10%
21	COc1ccc(C(=O)C2CCCN(Cc3ccc4nonc4c3)C2)cc1OC (stereo not drawn)	-26%	·	2%	-1%	-2%[46.1 µM]	·	5%[46.1 µM]	-9%
22	CC(OC(=O)c1cc2c(ccc3ccccc32)oc1=O)c1nc2ccccc2s1 (stereo not drawn)	-15%	?	-4%	21%	-1%	-3.2%	15%	-13%
23	Cc1cccc(C2CC(c3ccccc3)Nc3ncnn32)c1 (stereo not drawn)	-5%	-3%	1%	-4%	1%	-0.4%	·	8%
24	COc1ccc(C(C(=O)NC2CCCC2)N(C(=O)c2snc(-c3ccc(F)cc3)c2N)c2ccccc2)cc1 (stereo not drawn)	-3%	7.9µM*	16%	-8%	11%	7.1%	8%	-4%
25	CCOc1ccc(N(C)S(=O)(=O)c2c[nH]c(C(=O)OC)c2)cc1	-2%	·	3%	-3%	·	·	·	14%
26	O=C(Cn1nnc(-c2ccccc2NC(=O)C2CC2)n1)NC1CCCCC1	·	0%	-11%	5%	3%	6.1%	2%	-14%
27	CC(=O)C1C(c2cccc(Oc3ccccc3)c2)NC(=O)NC1(O)C(F)(F)F (stereo not drawn)	-24%	3%	4%	7%	?	-3.1%	26%	-12%
28	CCO[C@@H]1OC(C(=O)NCc2ccccc2)=C[C@H](C)[C@H]1CCCO	-10%	·	0%	0%	·	·	·	-1%
29	CCC(C(=O)Nc1cc(C)nn1-c1nc(C)cc(C)n1)c1ccccc1 (stereo not drawn)	-22%	?	-56%	20%	0%	7.8%	-8%	1%
30	Cc1ccc(N/N=C(\C#N)C(=N)N2CCCCC2)cc1	-20%	·	-4%	-1%	?	·	-24%[46.1 µM]	-17%
31	C(=N\N1CCN(c2ccccn2)CC1)/c1ccccn1	53%[activator]	·	-4%	-2%	27%	·	-3%	-22%
32	S=C(Nc1cccc(Cl)c1)N1CCN(Cc2ccccc2)CC1	-5%	8%	-13%	13%	-1%	-1.6%	-13%	-9%
33	COc1cc(N/C(N)=N/c2nc(C)cc(C)n2)cc(OC)c1	-14%	·	3%	2%	·	·	·	11%
34	Cc1ccc2nc(CCc3ccc(N)cc3)[nH]c2c1	63%[activator]	·	?	10%	-19%	·	-1%	-4%
35	COC12C(COC(N)=O)C3=C(C(=O)C(C)=C(N)C3=O)N1CC1C2N1C (stereo not drawn)	-10%	·	2%	4%	·	·	·	5%
36	CCn1c(SCC(=O)N2CCOCC2)nc(O)cc1=O	4%	4%	4%	-1%	·	3.0%	·	3%
37	O=C(COc1ccc(Cl)cc1)NCCc1cnc[nH]1	-6%	·	1%	-1%	·	·	·	5%
38	CC1=Nc2cc(C(=O)NCCc3ccc(Cl)cc3)ccc2Sc2ccc(C)cc21	-2%	10µM*	·	·	7.9µM*	-2.0%	?	·
39	C=CCn1c(SCC(=O)NC2CCCCC2)nnc1-c1sc(N)nc1C	2%	-6%	9%	4%	?	3.8%	-8%	13%
40	Cc1ccc(NC(=O)CCN2CCC(C)CC2)cc1	20%	·	-2%	-2%	?	·	28%[46.1 µM]	0%
41	N#CC1=C(N)n2c(s/c(=C\c3cccs3)c2=O)=C(C#N)C1c1cccs1 (stereo not drawn)	0%	25µM*	25%	11%	·	-24%	·	7%
42	Nc1nc(CCl)nc(N(c2ccccc2)c2ccccc2)n1	32µM*	·	?	2%	?	·	?	2%
43	O=C(CSc1cccc[n+]1[O-])Nc1ccc(Br)cc1Br	38%[activator]	·	·	3%	?	·	0%[46.1 µM]	4%
44	O=C(NC1CC1)c1ccc2c(c1)N(Cc1ccccc1)CCS2	-7%	·	20%	-6%	·	·	·	6%
45	O=C(Nc1cc(C(F)(F)F)ccc1-n1cncn1)c1ccc(Cl)cc1	-13%	3%	-4%	-17%	7%	-1.8%	-4%	?
46	COc1cc(-c2nc(-c3ccc(C)nc3OC)no2)cc(OC)c1OC	·	6%	-3%	-5%	0%	3.0%	·	·
47	N#CC1=C(N)Oc2cc(N)ccc2C1C1CCCCC1 (stereo not drawn)	-11%	-10%	8%	4%	?	-9.8%	?	-6%
48	CCOC(=O)C(C)n1nc(-c2ccccc2)c2ccccc2c1=O (stereo not drawn)	-11%	·	·	0%	-28%[46.1 µM]	·	-2%[46.1 µM]	5%
49	Cc1cc(C)cc(NC(=O)c2ccc(NC(=O)c3ccco3)cc2)c1	?	·	-1%	-4%	?	·	-26%[46.1 µM]	11%
50	O=c1c2c3nc4ccccc4nc3n(/N=C/c3ccccn3)c2ncn1-c1ccccc1	?	·	4%	1%	5.6µM*	·	?	86%
51	O=C(Nc1ccc(-c2nc3ccccc3o2)c(O)c1)c1cc(-n2cnnc2)ccc1Cl	13µM*	?	?	0%	?	-2.7%	3%	-18%
52	CCOc1ccc(CCNC(=O)COC(=O)c2nc3nc(C)cc(C)n3n2)cc1OCC	-23%	3%	2%	6%	1%	-2.1%	17%	0%
53	CCCC(c1nnnn1C(C)(C)C)N1CCN(c2ccccc2)CC1 (stereo not drawn)	-16%	·	-4%	1%	-9%[46.1 µM]	·	?	0%
54	CC(C)(C#N)C(C)(C)c1nn[nH]n1	-19%	-4%	5%	5%	3%&3%	4.7%	4%	1%
55	CCOc1ccc(CCNC(=O)CS(=O)Cc2nc(-c3ccc(C)cc3)oc2C)cc1 (stereo not drawn)	-11%	·	13%	1%	·	·	·	-11%
56	Cc1cc(C)c2c(CN3CCN(Cc4ccccc4)CC3)cc(=O)oc2c1	0%	·	-3%	0%	·	·	·	-16%
57	O=S(=O)(c1ccc(NC(=S)NC2CC2)cc1)N1CCOCC1	27%	·	1%	-1%	0%[46.1 µM]	·	-12%	3%
58	O=C(Cn1c(=O)n(Cc2ccco2)c(=O)c2cc(Cl)ccc21)NCC1CCCO1 (stereo not drawn)	-20%	2%	1%	-2%	20%	3.9%	-12%	7%
59	CCOc1ccc(CCNC(=O)C2CCN(c3nnc(-n4cccc4)s3)CC2)cc1	-15%	16µM*	5%	12%	·	-1.2%	·	3%
60	CC(=O)NC1(c2nnnn2CCOC(=O)Nc2ccc(Cl)cc2)CCCC1	10%	·	·	0%	2%[46.1 µM]	·	2%[46.1 µM]	22%
61	CN1CCN(c2ncc(CN3C(=O)c4ccccc4C3=O)s2)CC1	-3%	·	·	1%	8%[46.1 µM]	·	0%[46.1 µM]	-7%

Outcome played no part in choosing rows (roughly 4.5% active in at least one column).
